# Mtb hypoxia inh: PubChem AID 1159583. fluorescence inhibition, % (concentration not given with the values). 0.1% of 300,000 active. M. tuberculosis hypoxia-regulated fluorescent reporter, fluorescence;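 active means 35 to 45% if threefold the growth effect, above 45% if 1.5-fold the growth effect; inactive means the rest, general growth blockers included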;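 further: wells of about 50 µL received 100 nL stock; 0% = vehicle wells and 100% = reference inhibitor wells; whole bacteria with a GFP reporter of the hypoxia response; strong numbers were not always called active; many hits fall short of the cut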
# PrP 5UTR inh: inhibition of PrP 5' UTR reporter expression | cell-based PrP 5' UTR mRNA reporter, plate reader | inhibition, % (concentration not given with the values) | 0.35% of 340,000 active;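 active means every replicate at 50% or more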;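 further: 0 = median of the neutral control wells; tested in H4 reporter cells; numbers are from one replicate; inactives centre near -14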
# RN4220 kill: growth inhibition of S. aureus RN4220, primary screen, OD600; 16 h; inhibition, % (no concentration beside the values); 0.33% of 330,000 active;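 active means z-score of -3 or lower and OD600 up to 0.18 on both plates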;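 further: plate controls were untreated cells for no effect and reference antibiotic for full effect; stock transfer was 100 nL into about 80 µL; one replicate is shown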
# ugtP null kill: growth inhibition of ugtP-null S. aureus, primary screen, RN4220 ugtP deletion, OD600; 16 h; some inactives read as strong as hits; AID 1259309, 2017; growth inhibition, % (no concentration beside the values); 0.54% of 330,000 active;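 active means z-score under -3 and OD600 up to 0.15 on both plates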;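 further: plate controls were untreated wells for no effect and antibiotic for full effect; wells of about 80 µL received 100 nL stock; the first replicate is given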
# BJeLR lethal: MLPCN primary cell-based screen for lethality selective to Ras in HRASV12 cells; BJeLR (HRASV12) viability, CellTiter-Glo ATP luminescence, 48 h; reference of the scale not given here; inhibition, % (concentration not given with the values); 0.17% of 300,000 active;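 active means replicate mean above 50%; inconclusive means above 50% but judged a plate artefact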;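 further: 50 nL library stock added to about 25 µL; numbers are from one replicate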
# Bead autofluor: flagged as autofluorescent in microsphere protease counterscreen; compound autofluorescence counterscreen, microsphere flow cytometry; active compounds read high; fluorescence intensity (no concentration beside the values); 3.1% of 360,000 active;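 active means at least 3 SD above the mean of all compounds, about 16000 in these data; inconclusive means too few beads counted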;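 further: 100 nL of 1 mM stock went into each well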
# Mtb hypoxia inh growth: further read-out of Mtb hypoxia inh, marked with its call; growth inhibition, %; measured here: M. tuberculosis growth (absorbance);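 0% = vehicle and 100% = reference antibiotic; read after six days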
# An asterisk follows results filed as active; ? = inconclusive; / = not tested or not shown.
SMILES,Mtb hypoxia inh,Mtb hypoxia inh growth,PrP 5UTR inh,RN4220 kill,ugtP null kill,BJeLR lethal,Bead autofluor
N#Cc1c(N2CCOCC2)nc(N)c2c(N)nc3c(c12)CC(CCl)O3 (stereo not drawn),6,0,8,7.1,-4,-9,6750
O=C(CSc1nc2ccccc2n1CCc1ccccc1)c1ccc(O)c(O)c1,11,1,-13,-2.9,11,/,3822
CC(=O)Nc1ccc(NC(=O)C(C)OC(=O)c2ccc3ccccc3n2)cc1 (stereo not drawn),10,4,-6,5.7,3,/,/
CC(C)CN(C(=O)COC(=O)c1ccc([N+](=O)[O-])s1)c1c(N)n(Cc2ccccc2)c(=O)[nH]c1=O,16,2,-27,24,11,6,4145
COc1ccc(/C=C2\SC(=O)N(CCNC(=O)Cc3coc4cc(C)ccc34)C2=O)cc1OC,-5,1,-22,-0.6,-10,-8,2714
Cc1ccc(NC(=S)NC(C)(C)C)c([N+](=O)[O-])c1,12,-3,-14,4.9,9,-1,3589
Brc1ccc(Oc2cc(Br)c(Br)cc2Br)c(Br)c1,8,0,-10,-1.6,1,/,2807
Cn1c(COc2ccccc2)nnc1SCC(=O)Nc1ccc2c(c1)OCO2,3,10,-13,5.4,12,-8,10530
COc1cc(N)c(Cl)cc1C(=O)OCC(=O)NCc1cccs1,13,0,-6,1.9,6,/,?
CCOc1ccc2oc(=O)cc(CN3CCN(Cc4ccccc4)CC3)c2c1,3,13,-53,3.2,2,-2,4288
CC(C)N1CCc2c(sc(NC(=S)NC(=O)c3ccccc3)c2C#N)C1,24,15,-20,3.8,5,-1,2308
COc1ccccc1OCc1ccc(C(=O)NC2CCCCC2)o1,16,0,-7,3.8,6,6,3782
CCCOc1ccc(S(=O)(=O)N2CCN(C)CC2)c2ccccc12,-6,5,3,0.0,1,-9,6310
CCNC(=S)NC1CC2CCCC(C1)N2CCc1ccccc1 (stereo not drawn),19,10,-5,3.3,11,-6,3926
Nc1ncc(N=Nc2cc(C(=O)O)ccc2Cl)s1,2,-6,-16,5.1,3,/,4807
CN(C)C=Nc1nc2nccc(-c3ccccc3)n2n1,11,1,/,0.2,6,/,/
COc1cccc(NC(=O)C2CCN(S(C)(=O)=O)CC2)c1,8,0,-13,0.8,7,-1,5093
O=C(O)CCN1C(=O)c2ccc(NC(=O)CSc3ccc(Cl)cc3)cc2C1=O,-5,1,-17,2.3,2,25,5332
O=C(/C=C/c1c[nH]c2ccccc12)c1c(O)n(CCc2ccccc2)c(=O)[nH]c1=O,/,/,-17,/,/,-7,6939
CS(=O)(=O)N(CC(=O)NN=Cc1cccc2c1OCCO2)c1ccccc1Br,6,6,/,3.3,4,/,/
CCN(C(=O)COC(=O)CCC(=O)c1ccc(Cl)cc1)c1c(N)n(Cc2ccccc2)c(=O)[nH]c1=O,-2,4,-13,-1.6,1,/,3494
CCn1c(CSc2nc3ccccc3s2)nnc1SCC(=O)OC(C)(C)C,8,0,-10,5.9,1,2,16941*
CN(C)CCCNc1nc(-c2ccccc2)c2c(c1C#N)CC(C)(C)OC2,15,4,-53,5.1,8,0,4195
Cc1cc(-c2n[nH]c(=S)n2N=Cc2ccco2)n[nH]1,-1,-1,/,-0.7,2,/,/
Cc1[nH]c(=O)[nH]c1C(=O)CCCCC(=O)O,6,-7,-12,2.0,15,-1,4645
CCCc1nnc2n1N=C(c1ccc(C)cc1)CS2,1,-1,-17,4.6,2,8,5668
Cc1cc(=O)oc(C)c1C(=O)N[C@@H]1CCCCNC1=O,9,8,-13,-9.0,-9,-8,3171
COc1ccc(CN(C(=O)CSc2nnc(-c3ccccc3C)o2)c2ccc(F)cc2)cc1,/,/,-15,-3.3,-1,-10,2721
CNCc1ccccc1Sc1ccc(OC)c(OC)c1,/,/,-11,0.4,4,-7,4039
COc1ccc(NC(=O)Cc2c(C(=O)O)n(C)c3ccccc23)cc1OC,12,8,-5,3.1,3,-1,3722
CCOC(=O)C1CCN(C(=O)c2cccnc2)CC1,-9,-9,-13,-3.7,0,4,3415
Cc1nc2ccccc2c(=O)n1NC(=O)C=Cc1ccccc1,2,-3,/,5.6,-4,/,/
S=C(Nc1ccccc1)N1N=C(c2cccs2)CC1c1cccs1 (stereo not drawn),9,3,-23,2.3,-22,-8,4211
CC1=CC(c2ccc(Cl)cc2)n2nc(NC(=O)CCC(=O)O)nc2N1 (stereo not drawn),-1,-1,-20,-1.8,-4,-3,6029
Cc1ccc(O)c(-c2[nH]ncc2C(=O)c2ccc(Cl)cc2)c1,-1,-9,-4,-2.6,-10,-6,3319
Cc1nc(-c2ccccn2)nc(N(C)c2ccccc2)c1Cl,3,9,-15,7.6,7,-1,3573
CCOC(=O)C1(Cc2cccc(OC)c2)CCN(Cc2csc(C(C)=O)c2)CC1,-2,6,-37,2.2,1,3,4527
Brc1cccc(CNCC2CCCO2)c1 (stereo not drawn),8,-4,-2,1.7,3,-11,3957
O=C(O)c1ccc2c3c(ncnc13)-c1ccccc1C2=O,2,13,/,79,56,-5,/
COC(=O)c1cc(NC2c3ccccc3C(=O)N2c2cccnc2)cc(C(=O)OC)c1 (stereo not drawn),-1,8,-2,-3.9,-4,-4,5789
Cc1ccc(S(=O)(=O)N(C)c2ccc(OCC(=O)Nc3nc(-c4ccccc4)cs3)cc2)cc1,1,8,-8,1.8,11,-7,2664
CCOc1ccc(S(=O)(=O)Nc2ccc(C(=O)N(C)CC(=O)Nc3ccc(OC)cc3)cc2)cc1,-4,0,-35,1.7,6,5,6331
Cc1ccc(OCC(=O)O/N=C(\N)c2cccc([N+](=O)[O-])c2)cc1C,1,3,-7,1.4,-3,-3,4726
CCn1c(COc2ccc(C(C)C)cc2)nnc1SCC(=O)Nc1nccs1,4,-8,-10,3.3,7,3,15135
CCOc1ccccc1NC(=O)c1cc(C(=O)Nc2ccccc2OCC)cc(N2C(=O)CCC2=O)c1,0,6,-24,5.1,8,-6,2396
O=c1c2ccccc2nc(/C=C/c2ccc(Cl)cc2)n1CCO,11,5,-35,6.7,-2,3,3658
Cc1nc2ccccc2c(=O)n1N,9,10,-11,-10,-4,2,2767
O=C(Nc1cc(C(F)(F)F)ccc1-n1cncn1)c1ccc([N+](=O)[O-])o1,18,21,-4,51,58,14,4566
N#Cc1ccccc1S(=O)(=O)N1CCN(C(=O)[C@H](Cc2ccccc2)NC(=O)c2ccco2)CC1,12,8,-25,6.0,7,/,2932
CCOc1ccc(C)cc1S(=O)(=O)NC1CCCCCC1,13,-2,-14,1.9,20,-4,5958
# Further entries follow.
SMILES,Mtb hypoxia inh,Mtb hypoxia inh growth,PrP 5UTR inh,RN4220 kill,ugtP null kill,BJeLR lethal,Bead autofluor
O=C(NNC(=O)c1ccccc1O)c1ccco1,-16,-9,-15,-9.9,-7,-5,4162
C=CCn1c(SCC(=O)O)nnc1-c1cccc(Cl)c1,/,/,-4,0.0,5,1,4942
Cc1ccccc1NC(=O)CC(=O)c1ccccc1,14,8,-16,5.4,2,-5,4276
Cc1cc(NC(=O)C(C)Oc2ccc(C(C)(C)C)cc2)no1 (stereo not drawn),2,6,-7,0.4,7,11,5278
CC(=O)Nc1ccc(NC(=O)C2CCCN2C(=O)Nc2ccc(F)c([N+](=O)[O-])c2)cc1 (stereo not drawn),-3,-6,6,1.1,4,-2,3977
CCN(C(=O)COC(=O)/C=C/c1cccc([N+](=O)[O-])c1)c1c(N)n(Cc2ccccc2)c(=O)[nH]c1=O,6,8,-20,3.5,9,/,5741
Cc1cc(NC(=O)Cn2cnc3c(cnn3C(C)(C)C)c2=O)no1,-8,-1,-19,9.1,3,-10,3257
CN(C(=O)CC1C(=O)NCCN1Cc1ccccc1C(F)(F)F)C1CCOCC1 (stereo not drawn),5,3,-13,5.2,8,-3,4500
Cc1ccc(OCC(=O)Nc2ccc3c(c2)OCO3)c([N+](=O)[O-])n1,7,9,-53,4.1,-4,-9,2554
O=C1CSC(c2ccccn2)N1c1ccc(Br)cc1 (stereo not drawn),5,2,-15,20,7,16,3410
CCNC(=S)N/N=C(\C)c1ccc(Cl)s1,/,/,1,/,/,2,2216
C=CCn1c(CSc2nc3ccccc3s2)nnc1SCC(=O)NCc1ccco1,17,6,-3,1.3,0,-9,3782
CC1(C)Cc2c(c(-c3ccccc3)nc(N3CCCC3)c2C(N)=O)CO1,/,/,-8,-1.9,1,-9,4343
Cc1ccc(NC(=O)Nc2ccc3c(c2)N(C)C(=O)CS3)nc1,15,4,-53,20,-1,-9,10463
Fc1cccc(CCN2CCN=C2Nc2ccccc2)c1,10,9,-18,-7.8,6,/,2820
COc1cccc(C(CC(=O)Nc2cccc3ccccc23)NC(=O)c2ccccc2)c1 (stereo not drawn),0,4,-5,-0.6,-11,5,19845*
COc1cc(OC)c(OC)cc1CN1CCCC(C(=O)c2ccc3c(c2)OCO3)C1 (stereo not drawn),-6,-26,-12,-1.3,1,/,2273
Cc1ccc(C)c(NC(=O)C(OC(=O)c2cc[n+]([O-])cc2)c2ccccc2)c1 (stereo not drawn),1,-4,-10,1.9,2,/,5517
COc1ccc(OC)c(NC(=O)CSc2nc(=O)n(Cc3ccccn3)c3c2CCC3)c1,3,6,-8,-1.0,3,-3,6392
Cc1ccc(-n2ncc3c(=O)[nH]c(SCC(=O)N4CCN(c5ccccc5)CC4)nc32)cc1,/,/,-3,-5.0,11,6,3160
O=C(CC1SC(N2CCCC2)=NC1=O)Nc1ccc(C(=O)N2CCN(c3cccc(Cl)c3)CC2)cc1 (stereo not drawn),0,-4,0,3.1,2,-5,5305
O=C(COC(=O)COc1ccc(Cl)cc1)NC1CC1,-8,5,-20,-0.2,-4,/,3793
CC(=O)c1cccc(NC(=O)CCCNC(=O)c2ccc(Cl)cc2)c1,6,6,-18,0.3,10,-19,3547
CN(C(=O)COc1ccccc1)c1nnc(-c2ccncc2)s1,/,/,-16,1.5,5,-5,4737
O=C(NN=Cc1ccccc1OC(=O)c1ccc2c(c1)OCO2)c1ccccc1,11,8,/,12,1,/,/
CCOC(=O)C(=CNc1ccc(C)cc1C)C(=O)OCC,12,4,-42,2.0,-23,-3,9597
CN1CCN(C(=O)c2cc3ccccc3oc2=O)CC1,/,/,-18,-0.4,5,8,3108
CN(C)C(=O)c1cn(-c2ccc(Cl)cc2)c(=O)c2ccccc12,-10,-1,-22,0.7,4,-11,4283
Clc1ccccc1C1Nc2cccc3cccc(c23)N1,5,-6,-6,0.3,-12,-2,3668
COc1ccccc1N1CCN(C(=O)CCSCc2ccccc2F)CC1,-7,-3,-7,-0.6,-7,8,3230

# 4 records picked at random from those above:
SMILES,Mtb hypoxia inh,Mtb hypoxia inh growth,PrP 5UTR inh,RN4220 kill,ugtP null kill,BJeLR lethal,Bead autofluor
O=C(COC(=O)COc1ccc(Cl)cc1)NC1CC1,-8,5,-20,-0.2,-4,/,3793
CN(C(=O)COc1ccccc1)c1nnc(-c2ccncc2)s1,/,/,-16,1.5,5,-5,4737
O=C(CC1SC(N2CCCC2)=NC1=O)Nc1ccc(C(=O)N2CCN(c3cccc(Cl)c3)CC2)cc1 (stereo not drawn),0,-4,0,3.1,2,-5,5305
CCOC(=O)C(=CNc1ccc(C)cc1C)C(=O)OCC,12,4,-42,2.0,-23,-3,9597

# Of the compounds above, 2 contain a CF3 group:
SMILES,Mtb hypoxia inh,Mtb hypoxia inh growth,PrP 5UTR inh,RN4220 kill,ugtP null kill,BJeLR lethal,Bead autofluor
O=C(Nc1cc(C(F)(F)F)ccc1-n1cncn1)c1ccc([N+](=O)[O-])o1,18,21,-4,51,58,14,4566
CN(C(=O)CC1C(=O)NCCN1Cc1ccccc1C(F)(F)F)C1CCOCC1 (stereo not drawn),5,3,-13,5.2,8,-3,4500

# More compounds:
SMILES,Mtb hypoxia inh,Mtb hypoxia inh growth,PrP 5UTR inh,RN4220 kill,ugtP null kill,BJeLR lethal,Bead autofluor
Cc1ccc(CNCC(O)(c2ccccc2)c2ccccc2)cc1,8,-6,-8,3.9,13,22,3948
CSc1ccc(C(=O)/C=C/c2ccc(N)cc2)cc1,1,8,-92,6.6,-6,-3,2475
COc1ccccc1N1CCN(C2CCCN(S(=O)(=O)c3ccc(C)cc3)C2)CC1 (stereo not drawn),/,/,-6,/,/,-2,4408
Cc1cc(C)c[n+](CC(=O)c2ccc(NC(=O)c3ccccc3)cc2)c1,-3,4,-23,3.3,11,-9,4506
O=C(Nc1ccccc1)c1cnc2ccccc2n1,0,5,-88,5.8,10,0,2348
COc1ccc(C(=O)Nc2ccc3nc(N4CCOCC4)sc3c2)cc1OC,7,10,-11,-2.6,-15,/,3724

# Source: PubChem BioAssay (several laboratories)
